Screens as filed in PubChem.
Vaccinia inh: Vaccinia orthopox stage-specific inhibition; Vaccinia-infected cells, mCherry/Venus stage reporter fluorescence; stronger effect = lower value; some inactives read as strong as hits; activity change (mCherry), % (test concentration not listed); actives 0.01% (n = 89,000);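 active means mCherry past -33% and 40 or more points under the early reporter, replicates agreeing; inconclusive means past -33% without that gap or agreement; tested in A549 cells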;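 further: scaled between vehicle wells and reference inhibitor wells; 23 nL library stock went into each well; one replicate is shown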
Vaccinia inh Venus: recorded beside Vaccinia inh, whose call it bears; activity change (Venus), %; measured here: Venus reporter, other viral stage;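 negative = less Venus signal; first of two replicates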
Starred values were filed as active, the others as inactive; ? = inconclusive; · = not tested or not shown. Only part of the results is shown; the hit share may differ from the screen's.

compound	Vaccinia inh	Vaccinia inh Venus
CO[C@H]1CN(C)C(=O)c2cc(NC(=O)Nc3ccccc3F)ccc2OC[C@H](C)NC[C@@H]1C	0.3	1.4
CO[C@@H]1CN(C)C(=O)c2ccc(NC(=O)Nc3cc(F)ccc3F)cc2OC[C@H](C)N(C(=O)c2cnccn2)C[C@@H]1C	6.4	4.8
C[C@H](CO)N1C[C@H](C)[C@@H](CN(C)C(=O)Nc2ccc(C(F)(F)F)cc2)Oc2ccc(NS(=O)(=O)c3ccc(F)cc3)cc2C1=O	13.4	18.3
CN(C)C(=O)C[C@H]1CC[C@@H]2[C@H](COC[C@@H](O)CN2CC2CCCCC2)O1	10.5	13.9
COc1ccc(S(=O)(=O)N(C)C[C@@H]2OCCCC[C@@H](C)Oc3ccc(NC(=O)Nc4cccc5ccccc45)cc3C(=O)N([C@H](C)CO)C[C@@H]2C)cc1	7.5	-7.7
C[C@@H]1CN([C@H](C)CO)C(=O)c2cccc(NS(=O)(=O)c3ccc(Cl)cc3)c2O[C@H]1CN(C)S(=O)(=O)c1ccccc1	-8.0	-13.7
Cc1noc(C)c1S(=O)(=O)N(C)C[C@@H]1OCCCC[C@@H](C)Oc2ccc(NC(=O)C3CCCCC3)cc2C(=O)N([C@H](C)CO)C[C@H]1C	-26.7	-18.5
C[C@H]1CN([C@@H](C)CO)C(=O)c2cc(C#Cc3ccccc3F)cnc2O[C@H]1CN(C)C(=O)Cc1ccncc1	-2.1	-10.2
C[C@@H]1CCCCO[C@@H](CN(C)C(=O)Nc2ccc(C(F)(F)F)cc2)[C@H](C)CN([C@H](C)CO)C(=O)c2cc(NC(=O)c3ccncc3)ccc2O1	?	·
C[C@@H]1CCCCO[C@H](CN(C)Cc2ccc(C(=O)O)cc2)[C@H](C)CN([C@H](C)CO)C(=O)c2cc(NC(=O)Nc3ccc(C(F)(F)F)cc3)ccc2O1	-1.0	-1.9
COc1ccc(S(=O)(=O)N(C)C[C@H]2Oc3ccc(NS(C)(=O)=O)cc3CC(=O)N([C@H](C)CO)C[C@H]2C)cc1	-13.5	-16.8
CC(C)NC(=O)N1C[C@@H]2[C@H](c3ccccc31)[C@@H](CO)N2C(=O)c1ccccc1	-1.8	8.0
CN1C(=O)c2cc(NC(=O)Cc3cccs3)ccc2OC[C@H]2O[C@H](CC(=O)NCC3CCCCC3)CC[C@@H]21	1.6	2.3
CC(C)NC(=O)Nc1ccc2c(c1)C(=O)N(C)[C@H]1CC[C@H](CC(=O)Nc3ccc(F)cc3)O[C@@H]1CO2	10.8	11.7
O=C(C[C@H]1CC[C@H]2[C@@H](COC[C@H](O)CN2CCC(F)(F)F)O1)N1CCC(Cc2ccccc2)CC1	-14.7	-9.6
O=C(O)C[C@H]1C[C@H]2c3cc(NC(=O)Nc4ccc(F)cc4)ccc3O[C@H]2[C@H](CO)O1	11.8	19.1
C[C@@H]1CN([C@H](C)CO)C(=O)c2cc(NS(=O)(=O)c3ccccc3)ccc2O[C@@H](C)CCCCO[C@H]1CN(C)C(=O)Nc1ccc(C(F)(F)F)cc1	?	·
CCCC#Cc1cnc2c(c1)C(=O)N([C@H](C)CO)C[C@@H](C)[C@H](CN(C)C(=O)Cc1cccnc1)O2	9.8	2.2
C[C@H]1CN([C@@H](C)CO)C(=O)c2cc(-c3cccc(C(=O)N(C)C)c3)cnc2O[C@@H]1CN(C)S(=O)(=O)c1ccc(F)cc1	-14.7	-13.0
CCCNC(=O)Nc1ccc2c(c1)OC[C@H](C)N(C(=O)c1ccccc1F)C[C@@H](C)[C@@H](OC)CN(C)C2=O	5.1	3.6
CN(C)c1ccc2c(c1)[C@H]1C[C@@H](CC(=O)NCc3ccccn3)O[C@@H](CO)[C@H]1O2	5.5	9.2
C[C@@H]1CN([C@H](C)CO)S(=O)(=O)c2ccc(-c3cccnc3)cc2O[C@@H]1CN(C)C(=O)CN(C)C	21.8	13.5
C[C@@H]1CN([C@H](C)CO)C(=O)c2cccc(NC(=O)Nc3ccc4c(c3)OCO4)c2O[C@@H]1CN(C)Cc1ccc(-c2ccccc2)cc1	-30.4	-23.8
CNC[C@H]1Oc2c(NS(=O)(=O)c3ccc(Cl)cc3)cccc2C(=O)N([C@H](C)CO)C[C@@H]1C	0.3	-1.2
C/C=C/c1ccc2c(c1)O[C@@H](CN(C)C(=O)NC(C)C)[C@@H](C)CN([C@H](C)CO)S2(=O)=O	9.5	6.8
CN(C)C(=O)c1cccc(-c2ccc([C@@H]3[C@@H](CO)N4CCCCN(S(C)(=O)=O)C[C@@H]34)cc2)c1	35.5	13.7
C[C@@H]1CN([C@H](C)CO)C(=O)Cc2cc(NC(=O)C3CC3)ccc2O[C@H]1CN(C)S(=O)(=O)c1cn(C)cn1	5.5	7.9
C[C@@H]1CN([C@H](C)CO)C(=O)c2cc(C#Cc3ccccc3)cnc2O[C@@H]1CN(C)C(=O)C1CC1	3.0	2.8
CC(C)NC(=O)N(C)C[C@H]1OCCCC[C@H](C)Oc2ccc(NS(=O)(=O)c3ccc(F)cc3)cc2C(=O)N([C@H](C)CO)C[C@@H]1C	18.8	5.7
CN(C)CC(=O)N[C@@H]1C=C[C@H](CC(=O)NCc2ccc(Cl)cc2)O[C@H]1CO	4.5	4.5

3 records drawn at random from those above, as already listed:
compound	Vaccinia inh	Vaccinia inh Venus
CNC[C@H]1Oc2c(NS(=O)(=O)c3ccc(Cl)cc3)cccc2C(=O)N([C@H](C)CO)C[C@@H]1C	0.3	-1.2
C[C@@H]1CN([C@H](C)CO)C(=O)c2cc(C#Cc3ccccc3)cnc2O[C@@H]1CN(C)C(=O)C1CC1	3.0	2.8
O=C(C[C@H]1CC[C@H]2[C@@H](COC[C@H](O)CN2CCC(F)(F)F)O1)N1CCC(Cc2ccccc2)CC1	-14.7	-9.6

Later entries:
compound	Vaccinia inh	Vaccinia inh Venus
C[C@@H](NC(=O)[C@@H]1[C@@H](CO)[C@@H]2Cn3c(ccc(-c4cccnc4)c3=O)[C@H]1N2C)c1ccccc1	1.6	-3.8
C[C@H]1CN([C@@H](C)CO)C(=O)c2cccc(NC(=O)CCCCCC(=O)Nc3ccccc3N)c2O[C@H]1CN(C)C(=O)Nc1ccc(F)cc1	7.6	9.3
O=C(C1CCCC1)N1C[C@@H]2[C@H](c3ccccc31)[C@@H](CO)N2C(=O)c1cccnc1	12.4	-3.3
O=C(C[C@H]1C[C@H]2c3cc(NC(=O)C4CCOCC4)ccc3O[C@H]2[C@H](CO)O1)NCc1ccc(Cl)cc1	2.4	1.6
C[C@@H]1CN([C@H](C)CO)S(=O)(=O)c2ccc(-c3ccccc3F)cc2O[C@@H]1CN(C)C(=O)C1CC1	7.9	8.0
C[C@@H]1CN([C@@H](C)CO)C(=O)c2c(c3ccccc3n2C)-c2ccccc2CO[C@H]1CN(C)C(=O)Nc1cccc(F)c1	?	·
COc1ccc(S(=O)(=O)Nc2ccc3c(c2)C(=O)N([C@@H](C)CO)C[C@@H](C)[C@H](CN(C)C(=O)Nc2ccc4c(c2)OCO4)OCCCC[C@H](C)O3)cc1	10.8	11.6
C[C@H]1CN([C@@H](C)CO)C(=O)c2cc(NC(=O)Cn3cnnn3)ccc2O[C@H]1CN(C)C(=O)Nc1cccc2ccccc12	6.5	11.4
C[C@@H]1CN([C@H](C)CO)C(=O)c2cc(NC(=O)Cn3cnnn3)ccc2O[C@@H]1CN(C)Cc1ccc(C(=O)O)cc1	-7.5	-2.9
CO[C@@H]1CN(C)C(=O)c2ccc(NC(=O)Nc3cccc(Cl)c3)cc2OC[C@H](C)N(C(=O)Nc2c(C)noc2C)C[C@@H]1C	-16.8	-4.2
C[C@H](CO)N1C[C@H](C)[C@H](CN(C)C(=O)NC2CCCCC2)Oc2ccc(NC(=O)Nc3ccc(F)cc3)cc2CC1=O	17.1	11.5
C[C@@H]1CN([C@@H](C)CO)C(=O)Cc2cc(NS(=O)(=O)c3cn(C)cn3)ccc2O[C@H]1CN(C)S(C)(=O)=O	12.5	7.7
COc1ccc(NC(=O)Nc2ccc3c(c2)C(=O)N([C@@H](C)CO)C[C@H](C)[C@H](CN(C)Cc2ccc(C(F)(F)F)cc2)O3)cc1	?	·
CNC[C@H]1Oc2ccc(NC(=O)Nc3ccc(C(F)(F)F)cc3)cc2CC(=O)N([C@@H](C)CO)C[C@@H]1C	5.5	12.8
C[C@H]1CN([C@@H](C)CO)S(=O)(=O)c2ccc(C#CCC3CCCC3)cc2O[C@@H]1CN(C)C	?	·
COc1ccc(NC(=O)N(C)C[C@H]2Oc3c(cccc3N(C)C)C(=O)N([C@H](C)CO)C[C@H]2C)cc1	5.5	1.2
C[C@@H]1CN([C@@H](C)CO)C(=O)c2cc(NC(=O)Nc3ccc(F)cc3)ccc2O[C@@H]1CN(C)Cc1ccccc1	?	·
CC(C)N(C[C@H]1N[C@H](CO)[C@@H]1c1ccc(C2=CCCC2)cc1)C(=O)CN(C)C	-23.6	-15.1
O=C(C[C@H]1C[C@H]2c3cc(NC(=O)C4CCC4)ccc3O[C@H]2[C@H](CO)O1)NC1CCCCC1	2.2	-0.5
CC(C)c1cn(CC[C@H]2CC[C@@H](NC(=O)C3CCCCC3)[C@@H](CO)O2)nn1	16.1	3.3
CCCNC(=O)C[C@H]1CC[C@@H]2[C@@H](COc3ccc(NC(=O)c4cscn4)cc3C(=O)N2C)O1	16.1	16.4
O=C(CC1CC1)N1CC2(C1)[C@@H](c1ccccc1)[C@H](CO)N2Cc1ccc(F)cc1	-5.4	3.7
CN1CCCCN2[C@H](CO)[C@@H](c3ccc(C#Cc4ccccc4F)cc3)[C@@H]2C1	?	·
CC(C)C#Cc1ccc2c(c1)O[C@@H](CN(C)C(=O)c1ccncc1)[C@H](C)CN([C@H](C)CO)S2(=O)=O	-11.9	-13.7
O=C(C[C@@H]1CC[C@H](NC(=O)Cc2cccnc2)[C@H](CO)O1)Nc1ccccc1	2.9	-1.4
Cc1noc(C)c1NC(=O)N[C@H]1CC[C@@H](CC(=O)N2CCCCC2)O[C@H]1CO	4.3	4.6
C[C@H](CO)N1C[C@H](C)[C@H](CN(C)Cc2ccc(-c3ccccc3)cc2)Oc2ccc(NC(=O)CCN3CCOCC3)cc2C1=O	-28.4	-26.4
C[C@@H]1CN([C@@H](C)CO)C(=O)c2cc(-c3cccc(C#N)c3)cnc2O[C@@H]1CN(C)Cc1ccccc1	2.2	4.3
O=C(Nc1ccccc1F)N1CCCCN2[C@@H](CO)[C@@H](c3ccc(C#Cc4ccccc4)cc3)[C@@H]2C1	?	·
C[C@H](O)C#Cc1ccc([C@H]2[C@H](CO)N3CCCCN(CC4CCOCC4)C[C@@H]23)cc1	5.0	-2.2

The list continues.
compound	Vaccinia inh	Vaccinia inh Venus
COc1ccc(NC(=O)Nc2ccc3c(c2)C(=O)N([C@H](C)CO)C[C@@H](C)[C@H](CN(C)Cc2ccc4c(c2)OCO4)O3)cc1	-17.4	-14.9
CCCNC(=O)C[C@H]1CC[C@@H]2[C@H](COc3ccc(NC(=O)c4ccc5c(c4)OCO5)cc3C(=O)N2C)O1	-2.9	7.7
COc1ccc(S(=O)(=O)Nc2ccc3c(c2)C(=O)N([C@@H](C)CO)C[C@@H](C)[C@H](CN(C)S(=O)(=O)c2ccccc2)O3)cc1	21.4	21.9
C[C@H](CO)N1C[C@H](C)[C@@H](CN(C)S(C)(=O)=O)Oc2ccc(NS(=O)(=O)c3ccccc3)cc2CC1=O	6.1	-1.7
C[C@@H]1CN([C@H](C)CO)C(=O)c2cc(/C=C/c3ccccc3)cnc2O[C@@H]1CN(C)C(=O)CN(C)C	5.8	3.0
O=C(C[C@H]1C[C@@H]2c3cc(NC(=O)C4CCOCC4)ccc3O[C@@H]2[C@@H](CO)O1)NCc1cccnc1	9.4	6.4
CC(=O)N(C)C[C@@H]1OCc2ccccc2-c2c(n(C)c3ccccc23)C(=O)N([C@@H](C)CO)C[C@H]1C	11.0	38.0
COCC(=O)N1[C@H](C#N)[C@@H](c2ccc(C#CCC3CCCC3)cc2)[C@H]1CO	-13.5	-12.5
COCCNC(=O)C[C@H]1CC[C@@H]2[C@@H](COc3ccc(NS(=O)(=O)c4ccc(Cl)cc4)cc3C(=O)N2C)O1	8.2	6.5
CC(=O)N(C)C[C@H]1Oc2cc(-c3ccccc3F)ccc2S(=O)(=O)N([C@H](C)CO)C[C@H]1C	1.0	-0.6
C[C@@H]1CCCCO[C@H](CN(C)C(=O)c2ccccc2)[C@H](C)CN([C@@H](C)CO)C(=O)c2cc(NC(=O)c3ccncc3)ccc2O1	-5.6	2.1
O=C(C[C@@H]1CC[C@H]2[C@@H](COC[C@@H](O)CN2C(=O)c2cnccn2)O1)NCc1ccc(Cl)cc1	6.0	3.3
C[C@@H]1CN([C@@H](C)CO)C(=O)Cc2cc(NC(=O)Nc3ccc4c(c3)OCO4)ccc2O[C@H]1CN(C)Cc1ccncc1	4.3	-0.4
OC[C@@H]1[C@@H](c2ccccc2)[C@@H](CNCC2CCC2)N1CC1CC1	-14.4	-7.3
C[C@H]1CN([C@@H](C)CO)C(=O)c2cc(NC(=O)Nc3cccc4ccccc34)ccc2O[C@@H]1CN(C)Cc1ccc(Cl)c(Cl)c1	-8.6	-5.4
CO[C@H]1CN(C)C(=O)c2cc(NC(=O)Nc3cccc(Cl)c3)ccc2OC[C@H](C)NC[C@H]1C	?	·
CC(C)C#Cc1ccc([C@H]2[C@H]3CN(C(=O)NC4CCCCC4)CC(=O)N3[C@H]2CO)cc1	-18.4	-8.5
O=C(C[C@@H]1C=C[C@H](NC(=O)Nc2cccc(F)c2)[C@@H](CO)O1)NCC1CCCCC1	-6.1	3.2
C[C@@H]1CN([C@H](C)CO)C(=O)c2cc(-c3cncnc3)cnc2O[C@H]1CN(C)Cc1ccccc1	-4.4	-7.4
